# Screening data as filed in PubChem.
# MbtI inh – MbtI salicylate synthase inhibition | P9WFX0 | purified MbtI enzyme, fluorescence intensity read-out | inhibition, %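 (about 17 µg/mL by stock and volumes)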 | 100,000 compounds, 0.89% hits | AID 493033;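 active = above 50% in both replicates, above 80% if mildly self-fluorescent; inactive = the rest, strongly fluorescent compounds included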;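 also: 0% = mean of negative and 100% = mean of positive controls; one replicate is shown; some compounds called inactive have numbers as strong as hits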
# Target sequence (P9WFX0 whole entry, looked up): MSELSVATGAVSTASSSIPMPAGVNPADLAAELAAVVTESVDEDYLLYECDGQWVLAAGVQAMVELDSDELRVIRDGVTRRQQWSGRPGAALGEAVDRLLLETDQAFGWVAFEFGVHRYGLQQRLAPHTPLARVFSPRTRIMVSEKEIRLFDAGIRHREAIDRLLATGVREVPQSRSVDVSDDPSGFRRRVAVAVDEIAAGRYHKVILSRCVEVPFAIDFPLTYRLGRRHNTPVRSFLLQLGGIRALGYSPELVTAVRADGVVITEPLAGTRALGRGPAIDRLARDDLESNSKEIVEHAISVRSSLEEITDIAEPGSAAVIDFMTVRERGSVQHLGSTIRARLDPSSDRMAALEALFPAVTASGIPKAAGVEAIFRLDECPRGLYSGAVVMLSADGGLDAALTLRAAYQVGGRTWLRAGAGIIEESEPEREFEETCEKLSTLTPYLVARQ
# Polio RdRp inh – inhibitors of poliovirus RNA polymerase binding and polymerization. poliovirus polymerase elongation, fluorescence polarization; stronger effect = lower value. % elongation, % (compound at 16.7 µg/mL). 150,000 compounds, 0.66% hits; in the data active = % elongation below about 90%; also: some results filed as inactive read as strong as hits
# Target sequence (P03300 1749-2209 limits assumed): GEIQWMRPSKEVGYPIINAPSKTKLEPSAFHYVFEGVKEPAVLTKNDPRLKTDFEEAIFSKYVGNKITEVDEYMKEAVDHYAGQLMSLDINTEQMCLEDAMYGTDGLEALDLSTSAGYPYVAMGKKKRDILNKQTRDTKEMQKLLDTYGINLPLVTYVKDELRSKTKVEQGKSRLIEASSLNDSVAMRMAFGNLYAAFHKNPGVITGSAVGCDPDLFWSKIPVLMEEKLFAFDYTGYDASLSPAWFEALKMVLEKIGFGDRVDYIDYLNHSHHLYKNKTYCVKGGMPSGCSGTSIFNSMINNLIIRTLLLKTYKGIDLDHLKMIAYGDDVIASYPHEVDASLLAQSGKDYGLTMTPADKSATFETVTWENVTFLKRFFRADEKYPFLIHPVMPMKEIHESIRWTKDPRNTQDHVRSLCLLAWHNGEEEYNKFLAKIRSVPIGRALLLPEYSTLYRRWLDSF
# MenB inh – inhibitors of Mycobacterium tuberculosis MenB enzyme; 100,000 compounds, 0.43% hits; P9WNP5; inhibition, %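 (about 12 µg/mL by stock and volumes)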; MenB enzyme assay, absorbance read-out; some hits fall short of the stated cut;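 active = mean of two replicates above 30%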;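 also: 0% = no compound and 100% = wells with inactive enzyme; the first replicate is given; strong numbers were not always called active; inactives centre near -10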
# Polio RdRp inh intensity – also measured in Polio RdRp inh; calls as there; % elongation; measured here: total intensity read-out; formula for this scale not given here;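 total fluorescence in place of polarization; lower means less elongation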
# The depositor's hits bear a star; . = no result given.
SMILES,MbtI inh,Polio RdRp inh,Polio RdRp inh intensity,MenB inh
CCCC(C(=O)Nc1ccccc1F)N1Cc2ccccc2C1=O (stereo unspecified),18,99,102,5
CC1Oc2ccccc2N(CC(=O)NCc2ccccc2)C1=O (stereo unspecified),-7,103,102,8
N#Cc1ccccc1N=Cc1ccccc1O,-47,101,98,-17
O=C1CCCC2=C1C(c1ccncc1)n1c(nc3ccccc31)N2 (stereo unspecified),-459,101,104,-6
Cc1ccccc1C(=O)c1cccn1CC(=O)NC(C)c1ccc2c(c1)OCCO2 (stereo unspecified),-13,105,108,-8
CCc1ccc(NC(=S)N(Cc2cccnc2)Cc2ccco2)cc1,-2,100,103,-10
O=C(CSc1ccccc1Cl)NCc1ccccc1Cl,16,103,103,.
CCc1cc2c3c(c(=O)oc2cc1OCC(=O)OC(C)(C)C)CCCC3,3,102,105,4
O=C1c2ccccc2C(=O)N1CCCn1c(=O)oc2ccccc21,7,103,106,4
N=C1C(c2nc3ccccc3[nH]2)=C(O)CN1C1CCCC1,9,100,100,-9
COC(=O)c1c(C)oc(C)c1S(=O)(=O)Nc1ccc(C(C)C)cc1,-2,103,112,-15
COc1cccc(/C=N/n2c(N)nc3ccccc32)c1OC,-2,99,102,17
N/C(=N\OC(=O)Nc1ccccc1)c1ccc2nonc2c1,11,103,104,-20
Cc1cc(SCCOc2ccccc2)nc(N)n1,0,100,98,-33
CC(C)NCC(O)COc1ccc(COCCOC(C)C)cc1 (stereo unspecified),-3,102,98,9
O=C(N/N=C/c1ccccc1O)C12CC3CC(CC(C3)C1)C2,6,104,106,-73
O=c1c2ccccc2ncn1CCOc1ccc(Br)cc1,-9,99,105,-17
CC(=O)NS(=O)(=O)c1ccc(-c2ccc(/C=C3/C(=O)N(CCCO)C(=O)C(C#N)=C3C)o2)cc1,107,103,109,-10
CN(C)c1cncc(C(=O)O)c1,-5,104,97,-13
COc1ccc(Nc2nnc(SCC(=O)c3cc(C)n(-c4nccs4)c3C)s2)cc1,5,108,109,-19
Cc1ccc(NC(=O)CC2NC3CCCCC3NC2=O)cc1C (stereo unspecified),-9,99,101,-3
CN=c1scc(C)n1NC(=O)Nc1ccc(Cl)cc1,-1,101,102,7
CCc1ccc(NC(=O)N(Cc2ccc3c(c2)OCO3)C2CCN(CC)CC2)cc1,-10,99,102,3
O/N=C(/C(=N/O)c1ccco1)c1ccco1,2,101,98,17
COC(=O)CN1C(=O)/C(=C/c2ccc(OCc3ccccc3)c(OC)c2)SC1=S,-9,101,107,-23
C#CCn1cc(/C=C(/C#N)C(=O)Nc2ccccc2)c2ccccc21,-21,98,115,-149
COC(=O)/C(C#N)=C/c1ccc(C)s1,-2,102,102,-39
O=C(CNc1ccc(F)cc1F)Nc1ccc2c(c1)OC(F)(F)O2,2,102,96,-12
CC(C)SC1=NSC2=NC(=O)/C(=C\c3ccc(-c4cccc(C(=O)O)c4)o3)C(=N)N21,-5,102,102,-15
CCOC(=O)/C(C#N)=C/Nc1nc2ccccc2nc1N1CCOCC1,9,103,103,-4
Cc1ccc(CNC(=O)C2CCC(=O)N2C2CCCCC2)cc1 (stereo unspecified),0,98,101,-17
CCOc1ccc(NC(=O)CCCn2c(=O)[nH]c3ccccc3c2=O)cc1,-8,100,101,-10
CCCCn1c2c(c(=O)[nH]c1=O)C(c1ccc(OC(F)F)cc1)C1=C(CCCC1=O)N2 (stereo unspecified),-42,101,102,-30
COc1cccc(-c2nc(COC(=O)C3=COCCO3)cs2)c1OC,15,102,107,5
Nn1c(SCc2cn3ccccc3n2)nnc1C1CC1,5,107,112,4
CCNC(=O)C(C#N)=C1CCCCCC1,9,102,103,-4
COC(=O)c1sccc1N/C=C(\C#N)S(=O)(=O)C(C)(C)C,-1,105,100,-15
CC1CCCCC1NC(=O)NC(=O)CSc1nnnn1-c1ccc(Cl)cc1 (stereo unspecified),2,104,103,-15
COc1ccc(C(=O)CN2CCc3ccccc32)cc1,-3,101,102,.
CC(C)Sc1ccc2nnc(-c3ccccn3)n2n1,2,103,95,-12
Cc1ccc(-n2nc(C)c3c(C)c(CCC(=O)NC(C)c4ccc5c(c4)OCCO5)c(C)nc32)cc1 (stereo unspecified),52,102,107,-6
COc1ccc(C(=O)N2CCn3c2nc2ccccc23)cc1OC,14,100,99,6
CCCSc1nnc2c(n1)OC(C)(C)Nc1ccccc1-2,9,102,99,-7
Fc1ccc(Oc2nc(Oc3ccc(F)cc3)nc(N3CCSCC3)n2)cc1,8,105,103,-22
CCc1cccc(NC(=O)CCS(=O)(=O)c2ccc3c(c2)SCC(=O)N3)c1,-10,102,107,-18
CC1=C(C#N)C(c2ccc(N(C)C)cc2)C(C(=O)Nc2ccccc2)=C(C)N1 (stereo unspecified),-78,103,101,.
CC(C)=C1C(=O)N(c2ccccc2)C(=S)N1c1ccccc1,-15,100,102,-28
COCc1nc2ccccc2n1Cc1cccc2ccccc12,.,102,102,-20
O=c1cc[nH]c2c1ccc1c(O)ccnc12,116,101,106,-15
NC(=O)CCc1nc(-c2ccccc2)no1,-4,102,104,-6
O=C(C1CC(c2ccccc2F)=NO1)N1CCCCCC1 (stereo unspecified),-10,104,102,-22
COc1ccc(/C=C/C(=O)N2CCN(c3ccccc3)CC2)cc1OC,-4,104,105,.
CCc1ccc(NC(=S)N2CCC(N(C)C(C)C)CC2)cc1,0,102,97,-52
On1onc2c3cc(-c4ccccc4)nc3ccc21,.,106,107,-92
O=c1[nH]ccc2c1c(=O)[nH]c1ccccc12,-51,100,95,14
CCN1C2OC3OC4C(OC3OC2N(CC)S1(=O)=O)N(CC)S(=O)(=O)N4CC (stereo unspecified),.,105,111,-8
COC(=O)c1cc2oc3ccccc3c2n1CC(=O)Nc1ccc(C(C)C)cc1,6,102,103,-10
CC(=O)NCC(=O)NC1CCC(C)CC1 (stereo unspecified),-3,107,106,3
CCCCn1c(N)c(C(=O)OC)c2nc3ccccc3nc21,40,98,96,1
OC1CCN(Cc2cccc(C(F)(F)F)c2)CC1,2,101,102,-11
# Further results follow:
SMILES,MbtI inh,Polio RdRp inh,Polio RdRp inh intensity,MenB inh
N#Cc1cc2c(cc1C#N)Oc1ccccc1O2,1,99,103,10
O=C(N/N=C1\C/C(=N\NC(=O)c2ccncc2)c2ccccc21)c1ccncc1,-34,87*,93*,-206
Cc1ccnc(NC(=O)NCCCSc2nnnn2-c2ccccc2)n1,-3,105,102,-18
Fc1ccc(NC(=S)NC23CN4CN(CN(C4)C2)C3)cc1,-17,100,102,-14
CCN(Cc1ccc(OC)c(F)c1)c1nc(C(F)(F)F)nc2ccccc12,35,102,101,-30
Cc1nc(NC(=O)c2ccc(F)cc2)nc2cc3c(cc12)OCO3,-10,101,103,6
c1cncc(N=c2scc(-c3cccs3)n2CCCn2ccnc2)c1,14,95,94,-11
CCOC(=O)Cc1nn(Cc2nc(-c3ccccc3)cs2)c(=O)c2ccccc12,-2,98,107,-16
NC(=O)C1CCN(C(=O)Nc2cc3ccccc3s2)CC1,5,105,105,-1
CC12CC(c3ccccc3O1)C(C(=O)O)C(=O)N2CCc1ccc(S(N)(=O)=O)cc1 (stereo unspecified),-11,103,102,-61
O=C(NCCc1ccccc1F)c1ccc2ccccc2c1,-3,103,101,-46
O=C(CN(c1ccc2c(c1)OCCO2)S(=O)(=O)c1ccccc1)NC1CC1,1,101,101,7
CC(C)C(=O)Nc1ccc(Br)cc1,0,102,103,11
CCOC(=O)N1CCN(C(=O)c2ccc(CNS(=O)(=O)c3ccc(NC(C)=O)cc3)cc2)CC1,-4,101,108,0
COc1cc(CNCc2cccnc2)ccc1OCC(N)=O,.,98,91,-7
Cc1cccc(-c2nc3cc(NC(=O)c4cccc(F)c4)ccc3o2)c1,15,100,101,14
Cc1cc2nc(NC3CCS(=O)(=O)C3)c3ccccc3n2n1 (stereo unspecified),105,96,102,-1
N=c1oc2ccc3ccccc3c2cc1-c1nnc2n1CCCCC2,-105,95,105,-75
Cn1c(O)c(N=Nc2ccc(C(F)(F)F)cc2)c(=O)n(C)c1=O,3,104,113,0
CC(NC(=O)C1CCN(C(=O)c2cc3sccc3n2Cc2ccc(F)cc2)CC1)c1ccccc1 (stereo unspecified),-6,102,102,-30
CC(C)(C)CC(=O)NC1CCSC1=O (stereo unspecified),7,102,103,4
C/C(N)=C/C(=O)N1CCCCC1,-22,102,104,-2
COc1cc2[nH]c(=O)n(CCCCCC(=O)N3CCN(c4cccc(C)c4C)CC3)c(=O)c2cc1OC,-4,100,104,-52
NS(=O)(=O)c1ccc(-c2ccc(/C=N/NC(=O)COc3ccc(F)cc3)o2)cc1,-21,108,96,-15
N#Cc1c(N2CCCC2)nc(N)c2c(N)nc(N3CCCC3)cc12,-41,74*,77*,3
CN(CC(=O)O)Cc1cccnc1,-4,99,102,26*
N#C/C(=C\c1c(Oc2ccccc2)nc2ccccn2c1=O)C(=O)NCc1ccco1,19,101,104,-102
O=C(c1noc2c1CCCC2)N(C1CCCCC1)C1CCCCC1,-2,103,97,-9
Cc1cc(=O)n(-c2nc(-c3ccccc3)cs2)[nH]1,0,100,103,-175
CCN(CC)S(=O)(=O)c1ccc(O)c(C(=O)O)c1,107,98,98,-8
Cc1cc(N=Cc2c[nH]c3ccccc23)ccc1Br,-4,101,106,.
O=c1cc(-c2ccccc2)c2ccc3c(c2o1)CN(Cc1ccc2c(c1)OCO2)CO3,45,103,103,-10

# Grouped by structure: the compounds so far containing fluorine (14)
SMILES,MbtI inh,Polio RdRp inh,Polio RdRp inh intensity,MenB inh
CCCC(C(=O)Nc1ccccc1F)N1Cc2ccccc2C1=O (stereo unspecified),18,99,102,5
O=C(CNc1ccc(F)cc1F)Nc1ccc2c(c1)OC(F)(F)O2,2,102,96,-12
CCCCn1c2c(c(=O)[nH]c1=O)C(c1ccc(OC(F)F)cc1)C1=C(CCCC1=O)N2 (stereo unspecified),-42,101,102,-30
Fc1ccc(Oc2nc(Oc3ccc(F)cc3)nc(N3CCSCC3)n2)cc1,8,105,103,-22
O=C(C1CC(c2ccccc2F)=NO1)N1CCCCCC1 (stereo unspecified),-10,104,102,-22
OC1CCN(Cc2cccc(C(F)(F)F)c2)CC1,2,101,102,-11
Fc1ccc(NC(=S)NC23CN4CN(CN(C4)C2)C3)cc1,-17,100,102,-14
CCN(Cc1ccc(OC)c(F)c1)c1nc(C(F)(F)F)nc2ccccc12,35,102,101,-30
Cc1nc(NC(=O)c2ccc(F)cc2)nc2cc3c(cc12)OCO3,-10,101,103,6
O=C(NCCc1ccccc1F)c1ccc2ccccc2c1,-3,103,101,-46
Cc1cccc(-c2nc3cc(NC(=O)c4cccc(F)c4)ccc3o2)c1,15,100,101,14
Cn1c(O)c(N=Nc2ccc(C(F)(F)F)cc2)c(=O)n(C)c1=O,3,104,113,0
CC(NC(=O)C1CCN(C(=O)c2cc3sccc3n2Cc2ccc(F)cc2)CC1)c1ccccc1 (stereo unspecified),-6,102,102,-30
NS(=O)(=O)c1ccc(-c2ccc(/C=N/NC(=O)COc3ccc(F)cc3)o2)cc1,-21,108,96,-15
